MgrA DNA FP: modulators of Staphylococcus aureus MgrA DNA binding | fluorescence polarization | inhibition, %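 (about 10 µg/mL by stock and volumes)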 | 84,000 tested, 0.13% active;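 active = above 50% in either of two replicates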;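 also: 0% = protein plus DNA without compound and 100% = DNA alone without protein; higher means less MgrA bound to DNA so lower polarization; one replicate is shown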
Sa helicase inh: blocks Staphylococcus aureus DNA helicase. purified S. aureus helicase, fluorescence unwinding assay; about half of the hits fall short of the stated cut. inhibition, %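 (tested at about 80 µM)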. 120,000 tested, 0.05% active;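 active = both duplicates at 50% or more, or one of them with a favoured structure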;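 also: 0% = mean of negative control wells and 100% = mean of positive control wells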
* marks the source's active call; other numbers are inactive results; . = not tested or not shown.

Every second line gives: Sa helicase inh	MgrA DNA FP
CC12C=CC(C)(O1)C1C(=O)N(c3cc(C(F)(F)F)ccc3Cl)C(=O)C12 (stereo not drawn)
  .	-9.4
CCCC(=O)Nc1nc2ccc(N)cc2s1
  9.0	1.2
CN(C)C(=O)c1nn(-c2ccc(Cl)cc2)c(=O)c2ccccc12
  22.0	.
Cc1ccc(-n2c(COc3cccc(C)c3)n[nH]c2=S)cc1
  40.0	.
CN(C)c1ccc(C2Nc3ccccc3O2)c(Cl)c1 (stereo not drawn)
  .	-0.4
FC(F)(F)c1ccc(Cl)c(Nc2ncnc(-n3cccc3)n2)c1
  .	0.1
CCOC(=O)CNC1=NCc2ccccc21
  -17.0	-1.0
COc1ccc(N=Cc2cn(-c3ccccc3)nc2-c2cccs2)cc1
  -11.0	3.0
O=S(=O)(c1ccccc1)n1ccc(-c2cnc3cc(Cl)c(Cl)cc3n2)c1
  .	0.4
CCOC(=O)Cc1nc(-c2ccncc2)n[nH]1
  15.0	.
CC1(C)CC(C(N)=O)C(C)(C)N1 (stereo not drawn)
  -20.0	.
CCCOC(=O)C1=C(C)N(C)C(=O)NC1c1cc2c(cc1Br)OCO2 (stereo not drawn)
  .	-2.4
CC1=C(C(=O)Nc2ccccn2)C(c2ccsc2)C2=C(CC(c3ccco3)CC2=O)N1 (stereo not drawn)
  5.0	-1.6
O=C(COCC(=O)Nc1ccc(Cl)cc1F)Nc1ccc(Cl)cc1F
  2.0	-0.7
O=C(NCC(O)c1ccccc1)Nc1ccc(F)cc1 (stereo not drawn)
  13.0	.
Cc1ccc(C(=O)Sc2nnc3ccccn23)cc1
  -2.0	3.9
CCCCc1cc(C(=O)Cc2ccccn2)c(O)cc1O
  1.0	.
CC(C)OC(=O)CC12CN3CC(CC(=O)OC(C)C)(CN(C1)C(=O)c1ccccc1C3=O)C2=O
  5.0	-2.0
O=C(CSc1n[nH]c(=O)n1Cc1ccco1)c1ccc2c(c1)OCCO2
  -28.0	.
Cc1ccc2nc(C(O)C(O)c3nc4ccc(C)cc4[nH]3)[nH]c2c1 (stereo not drawn)
  -18.0	-1.0
CSc1nn2c(C(F)(F)F)cc(C(F)(F)F)nc2c1C(=O)O
  .	-1.6
CC1(C)CC(CCC(=O)Nc2ccc(S(=O)(=O)Nc3nccs3)cc2)C(=O)O1 (stereo not drawn)
  2.0	.
CCS(=O)(=O)N1CCN(C2CCCCCCC2)CC1
  14.0	-5.2
O=C(COC(=O)C12CC3CC(CC(C3)C1)C2)c1ccc(F)cc1
  2.0	-0.8
N#Cc1ccc2ccn(CC(N)=O)c2c1
  4.0	-2.7
Cc1c(N2CCCC2)cc2c(c1-n1cccc1)C(C)(C)CC2(C)C
  .	-0.2
CN(C)CN1C(=O)c2ccccc2C1=O
  .	-0.6
CC1(C)CC(=O)c2sc(NC(=O)/C=C/c3ccccc3)nc2C1
  -5.0	-0.6
COc1cc(Cl)c(C)cc1NC(=O)c1cnc(C)cn1
  -8.0	2.0
Cc1ccc(C)c(NC(=O)C(C)n2sc3ccccc3c2=O)c1 (stereo not drawn)
  2.0	-2.5
CN(C)N1C(=O)CC(Nc2ccc(F)cc2)C1=O (stereo not drawn)
  3.0	2.2
CSc1cccc(NC(=O)C2CCN(S(=O)(=O)c3cnc[nH]3)CC2)c1
  -23.0	.
CC(C)CN(C(=O)COc1ccc(F)cc1)C1CCS(=O)(=O)C1 (stereo not drawn)
  -5.0	.
N=c1oc2ccc3ccccc3c2cc1C(=O)Nc1ccccc1
  -2.0	0.6
CCOC(=O)c1cc(-c2ccc(OC)c(S(=O)(=O)N(C)c3ccc(OCC)cc3)c2)on1
  8.0	.
CSc1nnc(SC)n1CCNC(=O)c1cccc(Cl)c1
  .	-0.5
C=CCN1C(=O)/C(=C/C=c2\c3cccc4cccc(c43)n2CC)SC1=S
  5.0	3.0
CCNc1oc(-c2ccc(F)cc2)nc1S(=O)(=O)c1ccc(Cl)cc1
  9.0	0.1
CCOc1cc(/C=c2\sc3nc4ccccc4n3c2=O)ccc1OCc1ccccc1
  .	-2.3
CC(C)(C)c1ccc(-c2nc(O)c(CC(=O)O)s2)cc1
  .	25.1
CCOCN(C(=O)Cn1c(-c2ccco2)nc2ccccc21)c1c(C)cccc1CC
  -13.0	.
O=C(NCCN1CCc2ccccc2C1)C1CCN(S(=O)(=O)N2CCCC2)CC1
  9.0	.
O=C(Cc1csc2nc(-c3ccccc3)cn12)NC1CCCC1
  17.0	.
CCCCOc1ccc(OCCNC(=O)C2CCC(=O)N2)cc1 (stereo not drawn)
  11.0	-1.2
Cn1nc(-c2ccc(S(=O)(=O)n3ccnc3)s2)cc1C(F)(F)F
  .	-1.4
Brc1ccc(-c2nnc3n2-c2ccccc2CC3)cc1
  -7.0	.
Cc1ccc2nc(-c3ccc(NC(=O)CCCC(=O)O)cc3)sc2c1
  .	3.2
C=C(C)Cn1c(=S)n(Cc2ccccc2)c2ccccc21
  -7.0	.
O=S(=O)(Nc1nc2ccccc2nc1NC1CCCC1)c1ccc(Cl)s1
  -48.0	.
O=C(NC(=S)n1nnc2ccccc21)c1ccccc1
  .	-1.8
CN(Cc1ccco1)C(=O)COc1cccc2c1OC(C)(C)C2
  11.0	.
CCOC(=O)C1C(c2ccc(F)cc2)C(C(=O)OCC)C(O)(C(F)(F)F)NC1(O)C(F)(F)F (stereo not drawn)
  .	0.5
O=C(CC1OC(=O)c2ccccc21)Nc1cccc2cccnc12 (stereo not drawn)
  0.0	.
Cc1ccc2nc(-c3ccccn3)cc(C(=O)O)c2c1
  16.0	-0.5
CCOC(=O)c1sc(CN2CCN(c3cccc(Cl)c3)CC2)nc1C
  .	-0.9
C=CCn1c(Cc2ccc(OC)cc2)nnc1SC(C)C(=O)Nc1ccc2c(c1)OCO2 (stereo not drawn)
  0.0	-4.4
N#Cc1c(N)nc(SCc2ccccc2)c(C#N)c1-c1cccs1
  -2.0	0.8
CS(=O)(=NC(=O)c1ccc2nnsc2c1)c1ccccc1 (stereo not drawn)
  .	1.5
CCOc1ccccc1C(=O)NCC(=O)N(C)Cc1cccnc1
  7.0	.
Nc1ccccc1OC(=O)C[n+]1ccccc1
  15.0	-1.6

One compound at a time (already shown).
`FC(F)(F)c1ccc(Cl)c(Nc2ncnc(-n3cccc3)n2)c1` as listed: Sa helicase inh = .; MgrA DNA FP = 0.1
`CSc1nnc(SC)n1CCNC(=O)c1cccc(Cl)c1` as listed: Sa helicase inh = .; MgrA DNA FP = -0.5

3 compounds from above, ordered by their value in MgrA DNA FP, highest first.
| SMILES | MgrA DNA FP |
| --- | --- |
| CS(=O)(=NC(=O)c1ccc2nnsc2c1)c1ccccc1 (stereo not drawn) | 1.5 |
| Cc1ccc2nc(-c3ccccn3)cc(C(=O)O)c2c1 | -0.5 |
| CCCCOc1ccc(OCCNC(=O)C2CCC(=O)N2)cc1 (stereo not drawn) | -1.2 |

The listing picks up with the 3 entries that preceded the break.
Every second line gives: Sa helicase inh	MgrA DNA FP
CS(=O)(=NC(=O)c1ccc2nnsc2c1)c1ccccc1 (stereo not drawn)
  .	1.5
CCOc1ccccc1C(=O)NCC(=O)N(C)Cc1cccnc1
  7.0	.
Nc1ccccc1OC(=O)C[n+]1ccccc1
  15.0	-1.6
CCOc1ccc(NC(=O)C2CC(=O)NC(N3CCCCC3)=N2)cc1 (stereo not drawn)
  6.0	-5.0
COc1ccc(-n2c(=O)/c(=C\c3ccccn3)s/c2=C(/C#N)C(=O)NC2CC2)cc1
  -8.0	.
Cc1ccc2c(c1)c1c3n2CCN(C2CCO2)C3CCC1 (stereo not drawn)
  14.0	2.5
Nc1nc(CSc2nnc(-c3cccc(Br)c3)n2C2CCCCC2)cs1
  5.0	0.9
CC(C)(C)NC(=O)C1CC(=O)OC1(C)C (stereo not drawn)
  8.0	5.0
C=C(C)c1cccc(C(C)(C)NC(=O)N2CCCC2)c1
  10.0	3.4
Cc1ccc(S(=O)(=O)N(CC(O)CN2CCCCC2)c2ccccc2)cc1 (stereo not drawn)
  6.0	1.9
O=C1C2C(c3ccccc3)C=CC(c3ccccc3)C2C(=O)N1c1nccs1 (stereo not drawn)
  12.0	-1.4
CCOC(=O)Nc1ccc2c(CNCC(C)C)cc(=O)oc2c1
  -8.0	.
CC1(C)CC(=O)C2=C(C1)Nc1ccccc1N(C1OC(=O)c3ccccc31)C2c1ccco1 (stereo not drawn)
  -17.0	.
CCc1cc(=O)[nH]c(SCc2ccc(C)cc2)n1
  .	3.0
CCN(CCO)C(=S)Nc1ccccc1C
  -4.0	.
CCN1C(=O)CC(OC(C)=O)C1=O (stereo not drawn)
  5.0	.
O=C(OCCCCN1C(=O)c2ccccc2C1=O)c1ccc(S(=O)(=O)N2CCCC2)cc1
  5.0	.
COC(=O)c1ccc(Sc2ccc(F)cc2)c(N)c1
  5.0	.
CCOc1cc(S(=O)(=O)N(CC)CC)c(OCC)cc1-n1cnnn1
  -3.0	1.2
O=C(Cc1ccsc1)OCN1C(=O)c2ccccc2C1=O
  -2.0	.
O=C(OCCN1C(=O)c2cccc3c(N4CCCCC4)ccc(c23)C1=O)c1ccc(S(=O)(=O)N2CCOCC2)cc1
  .	1.0
O=C(NC(O)C(=O)c1ccccc1)c1ccc(F)cc1 (stereo not drawn)
  -11.0	.
c1ccc(OC2CN(C(c3ccccc3)c3ccccc3)C2)cc1
  .	-2.1
CCOC(=O)c1cnc(Nc2nc3ccccc3s2)nc1CSc1ncccn1
  1.0	-1.4
Cc1ccc(S(=O)(=O)CC(SC#N)c2ccccc2)cc1 (stereo not drawn)
  10.0	.
CCn1c(SCCC(=O)Nc2ccccc2)nnc1-c1ccc(OC)cc1
  12.0	-0.5
C=C(C)Cc1c(C)[nH]c(=S)[nH]c1=O
  .	0.9
CN(/N=C/c1ncc(C(F)(F)F)cc1Cl)C(=O)c1ccc(Cl)cc1
  .	1.0
Cc1nsc(N)c1C(=O)OCC(=O)N1CCN(S(=O)(=O)c2ccc(Cl)cc2)CC1
  2.0	.
Cc1cc(NC(=O)COC(=O)CCc2c[nH]c3ccccc23)no1
  -3.0	.
COc1ccccc1CNC(=O)[C@@H]1CC(O)CN1C(=O)C12CC3CC(CC(C3)C1)C2 (stereo partly drawn)
  6.0	.
Cc1ccc(C)c(CN2CCNC2=O)c1
  14.0	.
NS(=O)(=O)c1ccc2nc(NC(=O)C3CCCCC3)sc2c1
  7.0	.
CCOCCCn1c(SCc2ccccc2)nnc1-c1ccncc1
  -21.0	.
O=C(Nc1c2c(nn1-c1cccc(Cl)c1)CS(=O)(=O)C2)c1ccc(S(=O)(=O)N2CCCC2)cc1
  7.0	.
Cc1cc2c3c([nH]c2cc1S(=O)(=O)N1CCC(C)CC1)CCCC3=O
  10.0	.
N/C(=N\S(=O)(=O)c1ccc(Cl)c(Cl)c1)c1ccccn1
  .	-0.4
COCc1c(C(=O)OCc2cc(=O)oc3cc(C)ccc23)oc2ccccc12
  16.0	.
CCc1nc2c(cnn2-c2ccccc2)c(=O)n1-c1ccc(Br)cc1
  -3.0	-1.6
COC(=O)c1ccccc1NC(=O)/C(C#N)=C/c1ccc2noc(-c3ccccc3)c2c1
  -5.0	.
N#CCCn1ncc(C#N)c1-n1cccc1
  .	-0.7
OC(COc1ccc(Cl)c(Cl)c1)CN1CCN(c2ncnc3scc(-c4ccccc4)c23)CC1 (stereo not drawn)
  .	1.0
CN1/C(=C\C(=O)COC(=O)C2CCN(S(=O)(=O)c3ccc4c(c3)OCCO4)CC2)C(C)(C)c2ccccc21
  11.0	.
CC(=O)N1CCc2cc(S(=O)(=O)CCC(=O)N3CCCC3)ccc21
  3.0	4.0
CCC(=O)NCC1(c2ccccc2)CCCC1
  3.0	3.8
Cc1c(Cl)cccc1-n1c(SCC(=O)N2CCC(C(=O)O)CC2)nc2ccccc2c1=O
  9.0	.
CCOC(=O)CC1C(=O)NCCN1C(=O)COc1ccc(C(C)(C)C)cc1 (stereo not drawn)
  7.0	-1.1
Oc1c(C(Nc2nccs2)c2ccc(F)cc2)ccc2cccnc12 (stereo not drawn)
  -11.0	.
Cc1cc(C)nc(SCc2ccccc2C(=O)O)n1
  -10.0	.
O=C(Oc1ccccc1)Oc1ccc2ccc(=O)oc2c1
  28.0	.
CCC(C)NC(=O)c1ccc(CS(=O)(=O)Cc2cccc(C)c2)o1 (stereo not drawn)
  12.0	.
CCc1ccc(NC2=CC(=O)CC(c3ccco3)C2)cc1 (stereo not drawn)
  12.0	2.8
CN(C(=O)COC(=O)C1(c2ccc(F)cc2)CCCC1)c1ccccc1
  12.0	-0.5
COc1ccc(CCN2C(=O)c3cccc4cc([N+](=O)[O-])cc(c34)C2=O)cc1OC
  .	0.1
O=C(C1CC1)N1CCc2cc(S(=O)(=O)NCc3ccccc3)ccc21
  9.0	0.6
Cc1ccc(-n2ncc3c(=O)[nH]c(SCC(=O)Nc4ccccc4C(F)(F)F)nc32)cc1
  5.0	3.4
CCC1CCCCN1C(=O)CSCc1ccc(Cl)cc1 (stereo not drawn)
  20.0	0.5
CCC(=O)Nc1nc2cc(Cl)c(C)cc2s1
  10.0	-1.8
COc1ccc(C(C#N)C2(C)OCCO2)cc1OC (stereo not drawn)
  -2.0	1.5
O=[N+]([O-])c1ccc2nsnc2c1
  .	-1.0
CCn1c2ccccc2c2nc3cc(OC)c(OC)cc3nc21
  .	0.5
CCOC(=O)c1[nH]c2ccccc2c1N=CN(C)C
  5.0	-0.6
CS(=O)(=O)c1ccc(NC(=O)c2cc(=O)[nH]c3ccccc23)cc1
  -13.0	.

An excerpt. The share of hits here may be higher or lower than overall.
